From PubChem BioAssay
Bfl-1 A1 inh – inhibitors of the anti-apoptotic protein A1, read as caspase activation; MEF A1-2A-BIM cells, Caspase-Glo 3/7 luminescence, 3 h; percent of clofoctol response, vehicle zero; caspase activation, % (concentration not given with the values); 330,000 compounds, 0.066% hits; AID 2462;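 active means over half of replicate activation scores above 10%, or exactly half above 10 with the replicate mean above 10; inconclusive means replicate mean below 10 yet half the replicates above 10; inactive means over half of replicates below 10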;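 further: wells of about 30 µL received 50 nL stock; many hits fall short of the cut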
LANA-H2A inh – blocks KSHV LANA binding to histone H2A/H2B; Q9QR71; cell-free LANA-H2A/H2B peptide, fluorescence polarization; inhibition, % (test concentration not listed); 320,000 compounds, 0.6% hits; AID 2629; in the data active means inhibition mostly above about 10%, no sharp cut-off; inactive means mostly below about 6.7%;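 further: stock transfer was 7.5 nL into about 10 µL; 0% = median of vehicle wells and 100% = median of positive control wells; one replicate is shown; the record names a cut of 25% in any replicate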
Vif TR-FRET – inhibitors of Vif binding to APOBEC3G peptide, primary screen, biochemical, TR-FRET, GST-Vif 1-94, biotin-A3G peptide, dose response retest (AID 1117319); TR-FRET GST-Vif / biotin-A3G peptide binding; higher % means a stronger effect; test concentration not given here; strong numbers were not always called active; inhibition, %, or IC50 in µM where a hit was titrated; 260,000 compounds, 0.57% hits;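 active means above the screen mean plus three standard deviations and confirmed in dose response; inconclusive means results disagree or hit not tested in dose response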;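 further: Vif residues 1-94 fused to GST binding biotinylated APOBEC3G peptide 110-148; 0% = full assay without inhibitor and 100% = GST in place of GST-Vif; retest series ran down from 100 µM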
HNF4A DNA FP – change in binding of human HNF4 alpha to DNA. P41235. HNF4a-FITC DNA binding, fluorescence polarization, 1 h. activity change, % at 10 µM. 360,000 compounds, 0.3% hits; in the data active means activity change above about 30%, passing the limit was not always enough;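 further: controls were the assay level and a saturating level of protein; the project sought stronger binding though the title names inhibitors; some compounds called inactive have numbers as strong as hits; positive values seem to mean higher polarization but the record does not say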
Target sequence (P41235 whole entry, looked up): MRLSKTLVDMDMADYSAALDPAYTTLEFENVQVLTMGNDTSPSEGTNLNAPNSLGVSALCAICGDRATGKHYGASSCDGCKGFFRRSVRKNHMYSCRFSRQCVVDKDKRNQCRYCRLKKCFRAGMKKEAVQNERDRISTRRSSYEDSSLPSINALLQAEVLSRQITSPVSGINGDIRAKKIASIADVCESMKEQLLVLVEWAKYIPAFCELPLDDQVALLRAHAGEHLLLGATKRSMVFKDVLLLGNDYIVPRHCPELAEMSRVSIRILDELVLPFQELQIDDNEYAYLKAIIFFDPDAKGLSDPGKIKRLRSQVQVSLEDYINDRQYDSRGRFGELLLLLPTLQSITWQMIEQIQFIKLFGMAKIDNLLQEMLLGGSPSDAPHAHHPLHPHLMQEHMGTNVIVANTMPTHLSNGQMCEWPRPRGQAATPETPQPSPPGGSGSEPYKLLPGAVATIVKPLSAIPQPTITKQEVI
B2AR ag – agonists of human beta-2 adrenergic receptor inducing internalization. response, % (concentration not given with the values). Am2.2-beta2AR cells, FAP receptor internalization, flow cytometry; reference of the scale not given here. AID 504454. P07550. 340,000 compounds, 0.43% hits;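 active means response above a set limit, near 3 SD of response in nonfluorescent compounds, cut at about 42% in these data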;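 further: stock transfer was 100 nL into about 11 µL; a reference agonist was the positive control; negative values mostly stem from fluorescent compounds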
Target sequence (P07550 whole entry, looked up): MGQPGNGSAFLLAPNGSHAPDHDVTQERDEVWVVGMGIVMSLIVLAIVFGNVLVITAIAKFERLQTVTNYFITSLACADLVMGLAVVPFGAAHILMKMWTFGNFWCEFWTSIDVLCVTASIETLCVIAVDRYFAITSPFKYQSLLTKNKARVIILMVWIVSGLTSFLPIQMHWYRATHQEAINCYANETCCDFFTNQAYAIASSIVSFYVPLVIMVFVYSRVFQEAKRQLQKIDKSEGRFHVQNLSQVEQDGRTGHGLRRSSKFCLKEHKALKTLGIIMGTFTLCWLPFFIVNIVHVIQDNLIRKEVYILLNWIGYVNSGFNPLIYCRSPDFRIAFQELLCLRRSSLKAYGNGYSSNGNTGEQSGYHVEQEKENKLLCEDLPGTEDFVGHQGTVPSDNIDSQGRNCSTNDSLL
E coli growth – E. coli growth inhibition. 330,000 compounds, 0.21% hits. Escherichia coli growth, OD600, 23 h; stronger effect = lower value. OD600 absorbance (no concentration beside the values);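 active means OD600 absorbance below the run mean of sample wells minus 3.6 SD, in any replicate, cut at about 0.56 in these data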;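 further: stock transfer was 300 nL into about 60 µL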
UCH37 DUB inh – blocks the human deubiquitinase UCH37; Q9Y5K5; purified proteasome/UCH37, Ub-AMC cleavage fluorescence; inhibition, % (test concentration not listed); 330,000 compounds, 0.33% hits; AID 588478;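 active means mean of two replicates above 20%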;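 further: 0% = compound-free wells with enzyme and 100% = wells lacking proteasome; stock transfer was 100 nL into about 20 µL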
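Material: Human UCH37 enzyme supplied as purified proteasome complex | Schedule: 30 min preincubation with enzyme, 25 min cleavage at room temperature | Detection: AMC fluorescence 355/460 nm | Measure: % inhibition of Ub-AMC cleavage fluorescence | Controls: Wells without proteasome as full block, compound-free enzyme plus substrate as uninhibited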
The depositor's hits bear a star; i = inactive; ? = inconclusive; nt = no result given; & = joins results of further samples.

SMILES	Bfl-1 A1 inh	LANA-H2A inh	Vif TR-FRET	HNF4A DNA FP	B2AR ag	E coli growth	UCH37 DUB inh
Cc1cc(C)n2c(SCC(=O)N(C)C3CCS(=O)(=O)C3)nnc2n1 (stereo unspecified)	0.4	-1.6	4%	-0.5	3	0.75	-0.9
N#C/C(=C\c1ccc(OCc2ccc(C(=O)O)cc2)cc1)C(=O)N1CCOCC1	-5.9	-5.6	nt	-2.8	1	0.73	6.3
COc1ccccc1NC(=S)N(c1ccccc1)C(C)C	-1.7	-2.1	?	2.9	1	0.74	3.0
CC[C@]12c3[nH]c4ccc(Cl)cc4c3CCN1C(=O)[C@@H](CC(=O)NCCCOC)C[C@@H]2C(=O)N1CCN(C(=O)C2CC2)CC1	nt	nt	-4%	1.9	0	0.71	5.1
CC(=O)N1c2ccc(S(=O)(=O)NCC3CCC(C(=O)Nc4cc(C)ccn4)CC3)cc2CC1C (stereo unspecified)	0.5	4.3	-2%	-13	-3	0.68	1.7
CCCC(c1c(C)n(C)n(-c2ccccc2)c1=O)c1c(C)n(C)n(-c2ccccc2)c1=O	0.4	-5.5	1%	-2.2	-13	0.68	-0.1
Nc1cc(-c2ccc(Cl)cc2)nn1S(=O)(=O)c1ccc(Cl)cc1	-0.5	-0.3	?	-2.5	5	0.73	6.3
COc1ccc(OC)c(CCNC(=O)CCc2nnc3ccc(N4CCCCC4)nn23)c1	1.8	-1.4	nt	-2.0	-5	0.68	1.6
Cc1cc(CNC(=O)C2CCC(=O)N(CCc3cccc(F)c3)C2)on1 (stereo unspecified)	-0.4	1.6	6%	1.6	1	0.68	2.9
CC(OC(=O)c1cccc(O)c1)C(=O)N(C)Cc1ccccc1 (stereo unspecified)	1.3	1.8	61%	3.5	-2	0.69	0.7
COc1ccc2cc3c(nc2c1)OCC3	-2.5	1.5	-1%	1.4	4	0.65	-4.1
O=C(COC(=O)[C@H](Cc1ccccc1)NC(=O)c1ccco1)NC(c1ccccc1)c1ccccc1	0.0	4.5	6%	-2.3	15	0.78	0.9
CN(c1ccccc1)S(=O)(=O)c1cccc(NC(=O)CSc2ncn[nH]2)c1	0.6	-0.6	nt	-0.9	3	0.64	0.0
CCN(CC(=O)NC1CCS(=O)(=O)C1)c1ccc([N+](=O)[O-])cc1C#N (stereo unspecified)	0.5	-0.9	nt	2.6	4	0.63	12
CC(C)C(=O)Nc1cccc(NC(=O)c2cccc(F)c2)c1	-0.6	-2.6	4%	-2.4	-5	0.62	0.4
Cc1ccnc(NCc2ccccc2O)c1	-1.1	1.0	1%	-0.2	-3	nt	nt
CN(C)c1ccc(/C=C(\C#N)C(=O)Nc2nc3c(s2)CCN(Cc2ccccc2)C3)cc1	-0.8	-12	-19%	66	i	0.7	6.6
CCOP(=O)(c1ccccc1)C1(C#N)CC1 (stereo unspecified)	-0.2	-0.4	-9%	-1.5	4	0.64	-0.3
N/C(=N\OC(=O)c1ccc(Br)cc1)c1ccccc1	-0.5	1.3	5%	-1.6	-5	0.73	0.7
COc1ccc(C(=O)N2CCSCC2)cc1OC1CCN(C(C)=O)CC1	0.0	2.1	nt	3.0	-5	0.7	2.4
Cc1ccc2c(ccn3cc4c(c(=O)n(C)c(=O)n4C)c23)c1	0.2	-0.4	2%	8.9	3	0.67	-138
Cc1cc(=O)[nH]c(SCc2nc3ccc([N+](=O)[O-])cc3[nH]2)n1	-0.2	-2.8	17%	-1.0	16	0.65	3.2
NC(=O)C1CCN(C(=O)c2ccc(C(F)(F)F)cc2)CC1	1.2	-1.9	1%	1.9	0	0.72	1.2
Cc1ccc(NC(=O)CSc2nnc3ccccn23)cc1	0.4	-1.0	-1%	-2.8	25	0.73	2.9
CCOc1ccccc1NC(=O)C1CCCN(S(=O)(=O)c2ccc(OC)c(C)c2)C1 (stereo unspecified)	0.2	2.0	1%&-6%	-0.9	-7	0.79	5.6
O=C(O)/C=C/C(=O)NC1CCCCC1	-1.8	4.2	-3%	0.2	4	0.71	2.1
Cc1ccccc1NC(=O)NC1(C(=O)N2CCN(C)CC2)CCCCC1	-0.6	-0.2	nt	-2.2	-5	0.68	-0.5
Oc1ccc(Cl)cc1-c1cc(-c2ccco2)[nH]n1	-0.6	1.2	?	2.5	-12	0.68	0.1
CC(=O)C(Sc1nn(C)c(=S)s1)C(=O)Nc1ccccc1 (stereo unspecified)	-0.4	-5.4	24%	0.6	5	0.68	7.5
Cc1ccc(C(CNC(=O)c2ccco2)N2CCN(C)CC2)cc1 (stereo unspecified)	0.1	3.2	0%	2.2	-11	0.69	2.1
Cc1ccc(N2CCN(/N=C/c3ccncc3)CC2)cc1	0.4	0.7	10%	-2.4	3	nt	nt
CCOc1ccc(CNC(=O)c2ccco2)cc1	2.2	3.6	21%	-6.7	-3	0.63	1.1
O=C(c1ccc2c(c1)OCO2)N1CCCN(C(=O)c2ccc3c(c2)OCO3)CC1	1.1	4.3	13%	-0.4	4	0.72	-1.0
COc1ccccc1NC(=O)CSc1nnc(-c2ccncc2)n1CC1CCCO1 (stereo unspecified)	1.1	-0.6	-1%	-5.4	-9	0.72	5.9
CCOC(=O)C1(CC2CCCCO2)CCN(Cc2cc3ccccc3[nH]2)CC1 (stereo unspecified)	0.3	-0.7	-2%	1.4	12	0.65	-3.1
NNC(=O)Cn1nc(-c2ccccc2)c2ccccc2c1=O	0.0	1.0	-9%	3.9	-9	0.69	2.9
COC(=O)Sc1nnc(-c2ccc(Br)cc2)o1	0.3	1.7	-22%	nt	nt	nt	nt
Brc1cccc(/C=N\n2cnnc2)c1	1.1	1.5	4%	-0.2	-4	nt	nt
O=S(=O)(c1ccc2c(c1)CCCC2)N1CCNCC1	-0.6	2.9	6%	0.1	2	0.64	1.0
NC(=O)Cn1cnc2nc3n(c2c1=O)CCC3	-0.6	-4.8	2%	-0.5	-7	0.71	4.7
CCC(C)N1CCN(C(=O)c2cc(OC)cc(OC)c2)CC1 (stereo unspecified)	0.3	-1.2	nt	-0.8	-4	0.7	4.4
COC(=O)C(C(C)C)N(Cc1cc(OC)cc(OC)c1)S(=O)(=O)CCl (stereo unspecified)	nt	nt	nt	-4.3	3	0.68	1.3
Cc1ccc(C)c(N(C(=O)c2ccco2)C(C(=O)NC2CCCC2)c2ccco2)c1 (stereo unspecified)	-0.1	0.5	nt	-0.7	7	0.7	-0.6
Cc1ccc(S(=O)(=O)N2CCC(C(=O)NC3CC(C)(C)NC(C)(C)C3)CC2)cc1C	0.0	3.1	nt	1.0	6	0.73	2.7
COC(=O)c1c(NC(=O)COC(=O)CCc2ccc(S(=O)(=O)N3CCOCC3)cc2)sc2c1CCC2	0.2	-2.6	-9%	0.2	0	0.7	-5.7

Some of these compounds in order of the HNF4A DNA FP value, largest number first:
| SMILES | HNF4A DNA FP |
| --- | --- |
| O=S(=O)(c1ccc2c(c1)CCCC2)N1CCNCC1 | 0.1 |
| O=C(c1ccc2c(c1)OCO2)N1CCCN(C(=O)c2ccc3c(c2)OCO3)CC1 | -0.4 |
| CCOc1ccc(CNC(=O)c2ccco2)cc1 | -6.7 |

Next results.
SMILES	Bfl-1 A1 inh	LANA-H2A inh	Vif TR-FRET	HNF4A DNA FP	B2AR ag	E coli growth	UCH37 DUB inh
Cc1c(C(=O)NCc2cccnc2)sc2nc(-c3ccccc3)cn12	-0.3	-2.3	nt	0.1	4	0.69	1.3
COc1ccc(C(=O)N2CCNC(=O)C2CC(=O)Nc2ccc(C)c(C)c2)cc1 (stereo unspecified)	0.8	8.2	nt	-6.5	-1	0.71	3.4
C=C1CCC[C@]2(C)C[C@H]3OC(=O)C(CN[C@@H](C)c4ccccc4)[C@H]3CC12 (stereo partly specified)	0.5	-0.8	3%	-0.3	6	0.64	1.3
COc1ccccc1N1CCN(C2CCCN(C(=O)c3ccccn3)C2)CC1 (stereo unspecified)	1.3	-8.7	nt	0.2	6	0.68	1.2
CCOc1ccc(C(=O)Nc2ccc(N3CCN(C(=O)c4ccco4)CC3)cc2)cc1Br	nt	nt	nt	-0.3	4	0.67	-1.0
Cc1noc(C)c1S(=O)(=O)N(CC(=O)NCc1ccc(Cl)cc1)c1ccc2c(c1)OCO2	1.2	0.6	-2%	3.7	3	0.78	5.1
O=C(c1c(Cl)cccc1Cl)N1CCN(c2ncccn2)CC1	1.3	-3.7	-1%	-0.5	-1	0.68	-1.8
CCC(C)c1ccc(NC(=O)N2CCOCC2)cc1 (stereo unspecified)	-1.3	0.1	nt	0.3	-4	0.62	2.9
Cc1ccc(S(=O)(=O)CC(CN2CCCCC2)N2CCCCC2)cc1 (stereo unspecified)	nt	nt	2%	-0.5	7	0.69	4.7
Cc1ccccc1C(=O)NNC(=O)CCc1ccccc1	1.5	-0.5	2%	-2.7	2	0.69	5.8
O=C(NCc1ccco1)/C(=C\c1cccnc1)NC(=O)c1ccccc1F	0.5	3.0	-2%	0.6	-3	0.65	-0.9
CN(C)c1cc[n+](CCC(=O)Nc2cccc([N+](=O)[O-])c2N)cc1	-0.1	1.1	0%	1.5	-1	0.65	2.8
S=C(NCCN1CCOCC1)NC1CCCC1	-0.2	0.9	1%	2.4	-1	0.69	0.7
Nc1ccc(C(=O)Nc2ccc3cc(S(=O)(=O)O)ccc3c2)cc1	nt	nt	7%	3.6	-2	0.66	5.6
CCOC(=O)C1CCN(CC(C)(C)NS(=O)(=O)c2ccc(C)cc2)CC1	-0.1	1.3	nt	-3.0	3	0.6	3.4
Cc1ccc(C)c(N2CN(CCC3=CCCCC3)CNC2=S)c1	-1.6	3.1	nt	-6.5	-4	0.67	2.2
COc1ccc(CCNCc2c(-c3ccccc3)n(C)c3ccccc23)cc1	-0.5	-1.2	-3%	1.1	30	0.64	1.9
Cc1ccc(SCc2[nH]nc3c2C(c2ccc(C)o2)C(C#N)=C(N)O3)cc1 (stereo unspecified)	0.1	9.9	25%	2.4	3	0.77	6.0
COCCNC(=O)c1ccc2c(c1)ncn2-c1cccc(C)c1	0.5	3.8	-1%	-1.5	-2	0.61	1.0
Cc1ccccc1NC(=O)C(=O)Nc1ccccc1C	-9.6	-1.9	nt	0.5	-6	0.68	5.1
CC(OC(=O)c1ccc(Cl)c(S(=O)(=O)N2CCOCC2)c1)C(=O)Nc1ccc(S(N)(=O)=O)cc1 (stereo unspecified)	-0.4	3.7	1%	-1.5	-1	0.63	4.2
Cc1ccc(S(=O)(=O)N2CCOC23CCN(S(=O)(=O)c2c(C)cc(C)cc2C)CC3)cc1	-0.2	-2.9	6%	-3.8	4	0.73	3.7
Cc1ccccc1-n1c(Cn2c(=O)sc3ccccc32)nnc1SCC(=O)N1CCOCC1	-0.3	-6.1	0%	0.8	-1	0.7	1.0
O=C(CN(C(=O)CNS(=O)(=O)c1ccccc1)c1ccc2c(c1)OCCO2)NC1CCCCC1	-0.3	-0.8	4%	0.8	7	0.78	1.6
CCOC(=O)C(Cc1ccccc1)NC(=O)CCc1c(C)nc2nc(C)nn2c1C (stereo unspecified)	-0.3	-2.9	5%	-1.4	11	0.66	-0.3
COc1ccc(NC(=S)NCCc2ccccc2)c(OC)c1	0.0	-0.2	18%	-2.2	5	0.63	3.7
C=C(C)C1CC=C(C)/C(=N/NC(=O)COc2ccc(Cl)cc2)C1 (stereo unspecified)	-0.5	-1.4	-2%	1.7	-18	nt	nt
COC(=O)c1cc(C#N)c(OC(C)C)nc1C	-0.6	-0.7	-2%	-2.1	7	0.67	-2.0

The order is random; about 2.1% have a hit in one of these screens.
